Measles inh – inhibitors of measles virus growth in infected cells | infected Vero cells, GFP fluorescence, 64 h; stronger effect = lower value | z-score (concentration not given with the values) | hit rate 0.1% among 33,000 | AID 745;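 active = z-score under -3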;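 note: score is relative to mean and SD of the compound wells of a plate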
An asterisk follows results filed as active.

SMILES	Measles inh
COc1ccc(N(C(C)=O)c2nc(-c3cc4c(ccc5ccccc54)oc3=O)cs2)cc1	0.53
CC(C)OC(=O)C(C)Oc1ccc2c(=O)c(Oc3ccccc3Br)coc2c1 (stereo unspecified)	-0.24
CC1CCN(c2ncnc3c2c(-c2ccccc2)cn3-c2cccc(C(F)(F)F)c2)CC1	-0.53
CCN1CCN(C(=O)CN2N=C(c3ccc(C)cc3)CCC2=O)CC1	-0.4
Cn1c(=O)c2c(nc(N3CCCC3)n2Cc2ccccc2Cl)n(C)c1=O	-1.19
CCN(CC)c1ccc(C2C(C(=O)Nc3cccc(C(F)(F)F)c3)=C(C)NC3=C2C(=O)CCC3)cc1 (stereo unspecified)	-1.23
O=C(Nc1ccc2oc(-c3ccc(F)cc3)nc2c1)c1ccc2c(c1)OCCO2	-0.17
Cn1cc(CCC(=O)NCc2ccccc2Cl)c2ccccc21	-0.54
O=C(c1ccc(Br)cc1)N1CCN(c2ccc([N+](=O)[O-])c(NC3CC3)c2)CC1	1.6
CCOC(=O)c1c(NC(=O)c2ccc(OC)cc2OC)sc2c1CCC2	-0.43
O=C(O)C1CCCCN1S(=O)(=O)c1ccc(Cl)cc1 (stereo unspecified)	-0.78
O=C(CCNS(=O)(=O)c1cccs1)Nc1ccc(F)cc1	-0.58

SMILES	Measles inh
O=C(c1cnn2c(C(F)(F)F)cc(-c3ccco3)nc12)N1CCOCC1	-0.06
Cc1ccc(C(=O)Nc2cc3nn(-c4ccc(C)cc4)nc3cc2C)cc1	0.47
CCOc1ccc(C2OC(=O)Cc3cc(OCC)c(OCC)cc32)cc1OCC (stereo unspecified)	0.17
COc1cc(NC(=O)C(C(C)C)N2C(=O)c3ccccc3C2=O)c(OC)cc1Cl (stereo unspecified)	0.71
Cc1ccc(-n2nc(C(=O)N3CCCC3)c3c4ccccc4n(C)c3c2=O)cc1	0.35
Cc1cc(C)n2nc(SC(C)C(=O)N3CCCC3)nc2n1 (stereo unspecified)	0.17
O=C(CN(C1CCCCC1)S(=O)(=O)c1ccc(F)cc1)N1CCN(c2ccccc2F)CC1	-0.28
CCc1ccccc1NC1OC(=O)c2ccccc21 (stereo unspecified)	-0.21
CCCCOc1ccc(N2C(=O)C3C4C=CC(C4)C3C2=O)cc1 (stereo unspecified)	-3.34*
COCCn1c(=O)[nH]c2cc(C(=O)NCCc3ccc(S(N)(=O)=O)cc3)ccc2c1=O	0.72
O=C(NC1CCCC1)c1cc(-c2cccnc2)nc2ccc(S(=O)(=O)N3CCCCCC3)cc12	0.57
COc1ccc(CCn2c(=S)[nH]c3cc(C(=O)NCc4cccnc4)ccc3c2=O)cc1OC	-0.07

SMILES	Measles inh
COc1ccc(N(C)C(=O)c2cc3cc4ccc(OC)cc4nc3o2)cc1	-0.1
CCOC(=O)c1ccc(-n2sc3c(c2=S)-c2cc(C)ccc2NC3(C)C)cc1	-0.84
COc1cc(C2NC(=O)CCC2[N+](=O)[O-])ccc1OCc1ccccc1 (stereo unspecified)	0.08
O=C(O)c1c[nH]c2ccc(S(=O)(=O)N3CCN(c4cccc(Cl)c4)CC3)cc2c1=O	0.78
Cc1ccc2nc(-c3ccccc3)c(-c3ccccc3)nc2c1	-1.12
CCC(Sc1nccn1C)C(=O)Nc1cc(C)on1 (stereo unspecified)	2.13
Cc1ccc(-c2noc(CCC(=O)N3CCCC(C)C3)n2)cc1 (stereo unspecified)	-0.26
Cc1ccc(Cn2c(=O)n(Cc3ccc(C(=O)NC4CCCC4)cc3)c(=O)c3ccccc32)cc1	-0.48
COc1ccc(C)cc1NC(=O)CCS(=O)(=O)c1ccc(Br)s1	0.12
CN1C(=O)c2ccccc2C(C(=O)Nc2ccc3c(c2)OCCO3)C1c1c[nH]c2ccccc12 (stereo unspecified)	-0.7
CC1(C)N=C(N)N=C(N)N1c1ccc(Oc2ccc(Cl)cc2)c(Cl)c1	-0.33
Cn1c(C(=O)O)cc2ccccc21	0.1

SMILES	Measles inh
COc1ccc2c(c1)CCc1c(C(=O)Nc3cc(OC)c(Cl)cc3OC)noc1-2	-0.58
COc1ccc([N+](=O)[O-])cc1NC(=O)C1CC(=O)OC12CCOC(C)(C)C2 (stereo unspecified)	0.12
O=c1oc2ccc3ccccc3c2cc1-c1csc(-c2cc3c(ccc4ccccc43)oc2=O)n1	-0.59
Cc1ccccc1NC(=O)C(c1ccc([N+](=O)[O-])cc1)N1CCOCC1 (stereo unspecified)	2.01
CCc1ccc(CNC(=O)CN2C(=O)COc3ccccc32)cc1	-1.93
O=C(Nc1cccc(-c2nc3ncccc3o2)c1)c1ccc(OCc2ccccc2)cc1	0.88
Cc1ccc(CNC(=O)CSc2nnc(N3C(=O)c4ccccc4C3=O)s2)cc1	-0.38
COc1ccccc1N1CCN(S(=O)(=O)c2c(C)sc3ncn(CC(=O)Nc4ccc(C)cc4Br)c(=O)c23)CC1	2.62
CCCCC1(CC(=O)Nc2ccc(F)cc2)C(=O)N(c2ccccc2)N(c2ccccc2)C1=O	-0.83
COc1cc(S(N)(=O)=O)c(OC)cc1Cl	0.46
Cc1c([N+](=O)[O-])ccc2[nH]c(-c3ccc(N)cc3)nc12	-1.47
COC(=O)C1=NNC2C(=O)N(c3ccc(Cl)cc3)C(=O)C12 (stereo unspecified)	-1.39

SMILES	Measles inh
O=C(CCn1c(=S)[nH]c2ccsc2c1=O)NCc1ccco1	-0.34
COc1ccc(C2Oc3nc(SC)nnc3-c3ccccc3N2C(C)=O)cc1 (stereo unspecified)	0.85
Cn1nc(CC(=O)Nc2ccc(C(F)(F)F)cc2)c2ccccc2c1=O	2.66
CS(=O)(=O)N1CCCC(C(=O)NCCCN2CCN(Cc3ccccc3)CC2)C1 (stereo unspecified)	-0.16
CN1CCN(c2oc(-c3ccccc3F)nc2C#N)CC1	0.55
Cc1ccc(C(=O)CC2(O)C(=O)N(Cc3ccc4c(c3)OCO4)c3ccccc32)cc1 (stereo unspecified)	0.68
Cc1cc2nc(SCc3cc4c(cc3Cl)OCO4)[nH]c2cc1C	1.14
O=C(CCCCCn1c(=S)[nH]c2ccc(Br)cc2c1=O)N1CC=C(c2ccccc2)CC1	-0.93
COCCN(CCOC)C(=O)c1cc2c(=O)n3ccccc3nc2s1	-1.41
CC1=C(C(=O)OCC(C)C)C(C=Cc2ccccc2)N2C(=O)CCSC2=N1 (stereo unspecified)	-1.03
COc1ccc(OC)c2[nH]c(=O)c(CCNC(=O)c3ccc(C(C)(C)C)cc3)cc12	0.72
CCSCCOC(=O)C1=C(C)NC2=C(C(=O)CC(c3ccccc3)C2)C1c1cccc2ccccc12 (stereo unspecified)	-0.03

Arranged by molecular weight (low to high): 5 of the compounds above
SMILES	Measles inh
CCc1ccccc1NC1OC(=O)c2ccccc21 (stereo unspecified)	-0.21
COCCN(CCOC)C(=O)c1cc2c(=O)n3ccccc3nc2s1	-1.41
O=C(Nc1ccc2oc(-c3ccc(F)cc3)nc2c1)c1ccc2c(c1)OCCO2	-0.17
O=C(c1ccc(Br)cc1)N1CCN(c2ccc([N+](=O)[O-])c(NC3CC3)c2)CC1	1.6
Cc1ccc(Cn2c(=O)n(Cc3ccc(C(=O)NC4CCCC4)cc3)c(=O)c3ccccc32)cc1	-0.48

New compounds follow.
SMILES	Measles inh
CC(C)NC(=O)CCS(=O)(=O)c1cccc2nonc12	0.45
CCOc1ccc2c3c(c(=O)oc2c1OCC)CCCC3	0.53
O=C(NCCC1=CCCCC1)c1cc(S(=O)(=O)N2CCOCC2)ccc1F	-0.32
CCc1nc(-c2ccc(Br)cc2)no1	-0.89
O=C1C(=O)N(CO)c2ccc(Br)cc21	0.39
COc1ccccc1CNC(=O)c1cc(-c2ccccn2)nc2ccccc12	1.18
O=C(c1nn2c(c1Cl)NC(c1cccs1)CC2C(F)(F)F)N1CCN(C(c2ccccc2)c2ccccc2)CC1 (stereo unspecified)	-0.81
Clc1ccc(Cn2c(N=Cc3ccc4c(c3)OCO4)nc3ccccc32)cc1	-1.57
Cc1ccc(N2C(=O)C(N3C(=O)c4ccc([N+](=O)[O-])cc4C3=O)C2c2ccc3c(c2)OCO3)cc1F (stereo unspecified)	0.15
CCOc1ccc(N(CC)S(=O)(=O)c2ccc3c(c2)CCN3C(=O)C2CCC2)cc1	-1.05
CC1CCCC(NC(=O)C2CCC(Cn3c(=S)[nH]c4ccccc4c3=O)CC2)C1C (stereo unspecified)	-0.02
O=C(O)C1C2C=CC(C2)C1C(=O)N1CCc2ccccc21 (stereo unspecified)	1.12

5 entries from above, set out differently:
Measles inh | canonical_smiles
0.12 | COc1ccc([N+](=O)[O-])cc1NC(=O)C1CC(=O)OC12CCOC(C)(C)C2 (stereo unspecified)
-0.59 | O=c1oc2ccc3ccccc3c2cc1-c1csc(-c2cc3c(ccc4ccccc43)oc2=O)n1
2.01 | Cc1ccccc1NC(=O)C(c1ccc([N+](=O)[O-])cc1)N1CCOCC1 (stereo unspecified)
-1.93 | CCc1ccc(CNC(=O)CN2C(=O)COc3ccccc32)cc1
0.88 | O=C(Nc1cccc(-c2nc3ncccc3o2)c1)c1ccc(OCc2ccccc2)cc1

(continued)
SMILES	Measles inh
CC1(C(=O)NCC2CCCO2)CCC(=O)N1CCc1ccccc1 (stereo unspecified)	1.31
CC(=O)Nc1sc2c(c1C(=O)Nc1cccc(C)c1)CCC(C(C)(C)C)C2 (stereo unspecified)	-0.3
Cc1cc(C)cc(Oc2coc3c(CN4CCC(C)CC4)c(O)ccc3c2=O)c1	-1.59
CCOC(=O)c1sc(NC(=O)COc2cccc(Cl)c2)nc1C	1.03
CC(=O)C1=C(Nc2ccccc2)CC(C)(O)C(C(C)=O)C1c1ccc(Cl)cc1 (stereo unspecified)	-0.1
Cc1nn2cnnc2[nH]c1=O	-0.53
CCOc1cc2c(cc1OCC)C1C(C(=O)N3CCCC3)c3ccccc3C(=O)N1CC2 (stereo unspecified)	0.75
Cc1ccc(NC2=NC(C)(C)N=C(N)N2)cc1C	1.29
C=CCn1c(=S)[nH]c2cc(C(=O)NCc3ccccc3)ccc2c1=O	-0.89
O=C(CN1N=C(c2ccc(Cl)cc2)CCC1=O)NC1CC1	-0.51
CN1CC(=NS(=O)(=O)c2ccccc2)N(C)C1=O	1.2
Cc1ccc(NC(=O)C2C(=O)N(Cc3ccccc3)C3(C)CC2c2ccccc2O3)cc1 (stereo unspecified)	-0.62

SMILES	Measles inh
O=C(CC1(O)C(=O)N(Cc2ccccc2Cl)c2ccccc21)c1ccco1 (stereo unspecified)	-0.34
O=C(Cn1ccc([N+](=O)[O-])n1)Nc1ccc(I)cc1	-0.29
COCCOC(=O)c1c(C)oc2ccc(OC(=O)c3ccco3)cc12	-0.1
CN(C)c1ccc(NC(=O)c2ccc([N+](=O)[O-])cc2Cl)cc1	0.79
COc1ccc(CC(=O)Nc2ccc(S(=O)(=O)Nc3nc(C)cc(C)n3)cc2)cc1	1.53
CC1CC(C)(C)NC(=S)N1CCC(=O)N1CCN(c2ccccc2)CC1 (stereo unspecified)	-0.2
O=C(NCc1ccccn1)N1c2ccccc2Sc2ccccc21	-0.54
N#Cc1ccc(Oc2ccccc2N2C(=O)c3ccc(Oc4ccc(C(=O)O)cc4)cc3C2=O)cc1	1.65
O=C(C1=C(O)C(=O)N(c2ncc(S(=O)(=O)c3ccc([N+](=O)[O-])cc3)s2)C1c1ccc(F)cc1)c1ccco1 (stereo unspecified)	-0.71
COc1cc(OC)cc(C(=O)N2CCc3cc(OC)c(OC)cc3C2COc2cc(C)cc(C)c2)c1 (stereo unspecified)	-0.46
O=C(NCCCn1ccnc1)c1cc(-c2ccc(Cl)s2)nc2ccccc12	-1.93
CCOC(=O)c1c(NC(=O)C(C)(C)C)sc(C)c1C	-0.91

SMILES	Measles inh
CCc1ccc(-n2c(=O)c3ccccc3n(Cc3cccc(F)c3)c2=O)cc1	-0.42
Cc1ccc(C2CC(C(F)(F)F)n3nc(C(=O)NC4CCCCC4)cc3N2)cc1 (stereo unspecified)	1.38
CCCCNC(=O)C1CCN(S(=O)(=O)N(CC)CC)CC1	-0.51
O=C(NC1CCCCC1)c1scc2c1CCCC2	-0.78
CCCCCC(=O)N1c2ccccc2NC2=C(C(=O)CC(c3cccc([N+](=O)[O-])c3)C2)C1c1ccco1 (stereo unspecified)	0.97
Cn1ncc([N+](=O)[O-])c1C#N	-0.09
CCC(NS(=O)(=O)c1cccc(C(=O)Nc2cccc([N+](=O)[O-])c2)c1)C12CC3CC(CC(C3)C1)C2 (stereo unspecified)	-1.12
COc1ccccc1-n1cnc2cc(NCc3ccc(Cl)cc3)ccc21	-0.42
Cc1ccc(CN2C(=O)C(C)(C)Nc3ccccc32)c(C)c1	-1.28
Cc1sc(NC(=O)c2cccc(Cl)c2)nc1-c1ccccc1	-1.11
CCc1ccc(NC(=O)N(Cc2cn(C)c3ccccc23)C2CCCCCC2)cc1	-1.04
O=C1CCCC2=C1C(c1ccc(Br)cc1)c1c(ccc3ccccc13)N2 (stereo unspecified)	-0.74

SMILES	Measles inh
O=C(CCn1c(=S)[nH]c2cc3c(cc2c1=O)OCO3)NCCC1=CCCCC1	-0.81
COc1ccccc1NC(=O)CCC(=O)N1N=C(c2ccc(Br)cc2)CC1c1ccccc1 (stereo unspecified)	0.09
CCOC1C(OCC)N(S(=O)(=O)c2ccccc2)CCN1S(=O)(=O)c1ccccc1 (stereo unspecified)	-0.18
CCCn1c(COc2ccccc2OC)nc2ccccc21	-0.58
Nc1ccc2nc(SCc3ccccc3Cl)sc2c1	0.41
C=C(C)C1CCC(C)=C1COC(=O)c1ccc([N+](=O)[O-])cc1 (stereo unspecified)	-0.51
CCOC(=O)c1ccc(Nc2ncnc3ccc(Br)cc23)cc1	-0.09
CCCn1c(=N)n(CC(=O)OCC)c2ccccc21	1.17
COC(=O)c1ccc(N=Cc2ccc(OC(=O)c3ccccc3)c([N+](=O)[O-])c2)cc1	0.56
Cc1cccc(C(=O)Nc2ccc3nc(SCC(=O)Nc4ccc(Br)cc4)sc3c2)c1	-1.04

Not all compounds are listed; rates above refer to the full screens.
